Assay outcomes as filed in PubChem BioAssay.
PINK1 modulator: PINK1 expression modulation; PINK1 immunofluorescence, high-content cytometry, 24 h; Potency, µM (titrated, usually from 76.6 µM), without a hit: at the highest dose activation (PINK1 increase), most hits filed as activators; 410,000 compounds, 0.2% hits; AID 624263; active = well fitted activation curve with a large enough effect; inconclusive = small, poorly fitted or top-dose-only effect; inactive = flat fitted curve, though single readings scatter; cell line not stated here;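 note: potency is the fitted concentration of half-maximal effect; % of control where 0% means no effect; nearly all actives have a fitted effect of over 65% in size; a mitochondrial uncoupler was the plate control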
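Cells are seeded, rested 12 hours, then given compound at five concentrations or DMSO for 24 hours. After fixation, blocking and antibody staining, PINK1 amount and mitochondrial localization are scored; CCCP serves as control.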
D2 agonist: activates the human D2 dopamine receptor; P14416; DiscoveRx PathHunter D2 beta-arrestin, luminescence, 90 min; 100% = 57 uM dopamine signal; activation, % (no concentration beside the values); 360,000 compounds, 0.084% hits; AID 624465; in the data active = activation above about 40%; inconclusive = about 15% to 40%; inactive = below about 15%; note: compound concentration not given in the record; the text of the record calls up to 30% inactive
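Agonist mode: compounds alone added to overnight-plated D2 PathHunter cells for 90 min at 37 C, with 57 uM final dopamine (EC100) defining full response. Beta-arrestin recruitment detected by chemiluminescent reagent, read after 1 h at ambient temperature.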
Six1-Eya2 inh: Six1/Eya2 interaction inhibition; Q15475+O00167; AlphaScreen GST-Six1/His-Eya2 binding, biochemical; stronger effect = lower value; control for the full effect not named in the record; activity change, % (no concentration beside the values); 360,000 compounds, 0.56% hits; AID 651725; in the data active = activity change below about -65%; inconclusive = about -30% to -65%; inactive = above about -30%; note: % is set by controls: 0 for no effect and ±100 for the full control effect
Target sequence (O00167 whole entry, looked up): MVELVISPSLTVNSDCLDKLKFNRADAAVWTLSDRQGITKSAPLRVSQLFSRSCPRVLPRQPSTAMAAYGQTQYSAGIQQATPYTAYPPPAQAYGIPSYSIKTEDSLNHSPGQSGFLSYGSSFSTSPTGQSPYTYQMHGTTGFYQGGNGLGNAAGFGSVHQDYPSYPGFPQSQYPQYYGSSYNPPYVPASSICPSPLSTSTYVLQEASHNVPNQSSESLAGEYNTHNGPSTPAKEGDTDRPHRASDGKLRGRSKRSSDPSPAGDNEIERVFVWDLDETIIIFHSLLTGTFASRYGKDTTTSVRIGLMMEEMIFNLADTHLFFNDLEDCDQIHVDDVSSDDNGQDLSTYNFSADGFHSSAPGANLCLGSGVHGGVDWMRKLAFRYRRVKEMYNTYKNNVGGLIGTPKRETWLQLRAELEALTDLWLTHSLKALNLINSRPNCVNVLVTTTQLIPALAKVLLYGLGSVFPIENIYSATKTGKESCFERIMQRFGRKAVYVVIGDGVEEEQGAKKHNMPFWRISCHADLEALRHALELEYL
Target sequence (Q15475 whole entry, looked up): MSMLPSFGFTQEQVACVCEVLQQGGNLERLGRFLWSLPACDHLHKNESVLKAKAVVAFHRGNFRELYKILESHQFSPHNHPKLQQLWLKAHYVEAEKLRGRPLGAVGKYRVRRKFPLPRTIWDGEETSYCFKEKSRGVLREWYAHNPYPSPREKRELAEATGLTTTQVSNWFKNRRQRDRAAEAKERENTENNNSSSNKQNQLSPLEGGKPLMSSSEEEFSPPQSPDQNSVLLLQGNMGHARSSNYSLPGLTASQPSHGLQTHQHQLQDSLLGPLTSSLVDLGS
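AlphaScreen with GST-Six1 and His-Eya2 (5X mix: 250 nM and 500 nM), glutathione donor and nickel acceptor beads; buffer 50 mM Tris pH 8.0, 300 mM NaCl, 1 mM TCEP; 1 h at 37 C in the dark.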
CtBP-E1A inh: inhibitors of CtBP/E1A interaction | AlphaScreen GST-E1A/His-CtBP binding, 1536-well; stronger effect = lower value; control for the full effect not named in the record | activity change, % (no concentration beside the values) | 340,000 compounds, 0.49% hits | AID 651724; in the data active means activity change below about -65%; inconclusive means about -30% to -65%; inactive means above about -30%; note: % is set by controls: 0 for no effect and ±100 for the full control effect
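AlphaScreen with 125 nM GST-E1A and 125 nM His-CtBP (5X stocks) in Tris pH 8.0, 300 mM NaCl, BSA, Tween 20, TCEP. Compounds preincubated 2 h at 37 deg C, then glutathione donor/nickel acceptor beads added for 1 h at 37 deg C in dark.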
TRPML1 ag: agonists of human TRPML1 channel | 410,000 compounds, 0.12% hits | activation, % (test concentration not listed) | TRPML1-expressing cells, Ca2+ dye fluorescence, FDSS; host cell line not named in the record; reference of the full effect not given here | Q9GZU1; in the data active = activation above about 50%; inconclusive = about 30% to 50%; inactive = below about 30%; note: 0% is about no effect; the text of the record puts the active cut at 80%
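Agonist activity was taken from a 110 s kinetic Ca2+ dye read on the FDSS after pinning compounds onto TRPML1-DL cells. The cells were seeded at 1,500/well with Tet inducer, incubated about 16 h, then dye-loaded at room temperature.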
D2 PAM: positive allosteric modulators of human D2 dopamine receptor; P14416; DiscoveRx D2 beta-arrestin cells, luminescence, 90 min; 100% = 57 uM dopamine signal; potentiation, % (no concentration beside the values); 360,000 compounds, 0.23% hits; active = potentiation of 50% or more; inconclusive = 30% to 50%; inactive = 30% or less;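 note: compound concentration not given in the record; tested on top of an EC20 dose of dopamine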
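D2 cells co-treated with compound plus 50 nM dopamine (EC20) for 90 min at 37 deg C to detect potentiation. Beta-arrestin recruitment was read as enzyme-fragment luminescence after 1 h at ambient temperature. Full response was set by 57 uM dopamine.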
* = called active by the depositor; ? = inconclusive; . = no result given; & = joins results of further samples; [ ] = remark or other dose.

Start of the data: the first six entries (preview)
SMILES	PINK1 modulator	D2 agonist	Six1-Eya2 inh	CtBP-E1A inh	TRPML1 ag	D2 PAM
Cc1cc(NS(=O)(=O)c2ccc(NC(=O)C(C)Oc3cccc(C)c3C)cc2)nc(C)n1 (stereo not given)	-3.6%	-1.7	-3.0	-4.4	0.9	-1.3
Cc1cccc(N2CC(O)(c3cccs3)[N+]3=C2CCCC3)c1C (stereo not given)	-0.1%	-7.0	13.0	-0.1	-0.9	-10.9
Cc1ccc(S(=O)(=O)N2CCC3(CC2)OCCO3)s1	-1.4%	0.3	1.9	5.0	0.1	8.1
COc1cccc(N/C(N)=N/c2nc(C(F)(F)F)cc(C(F)(F)F)n2)c1	3.8%	-3.7	2.7	.	1.8	-3.2
CCn1c(CN2CCOCC2)nnc1SCC(=O)Nc1ccccc1C	0.3%	-4.1	12.7	-3.7	-0.3	-8.9
O=C(c1cc(-c2ccccc2O)on1)N1CCc2ccccc2C1	5.4%	-3.0	-0.6	5.7	1.4	-0.5

The listing, previewed entries included:
SMILES	PINK1 modulator	D2 agonist	Six1-Eya2 inh	CtBP-E1A inh	TRPML1 ag	D2 PAM
Cc1cc(NS(=O)(=O)c2ccc(NC(=O)C(C)Oc3cccc(C)c3C)cc2)nc(C)n1 (stereo not given)	-3.6%	-1.7	-3.0	-4.4	0.9	-1.3
Cc1cccc(N2CC(O)(c3cccs3)[N+]3=C2CCCC3)c1C (stereo not given)	-0.1%	-7.0	13.0	-0.1	-0.9	-10.9
Cc1ccc(S(=O)(=O)N2CCC3(CC2)OCCO3)s1	-1.4%	0.3	1.9	5.0	0.1	8.1
COc1cccc(N/C(N)=N/c2nc(C(F)(F)F)cc(C(F)(F)F)n2)c1	3.8%	-3.7	2.7	.	1.8	-3.2
CCn1c(CN2CCOCC2)nnc1SCC(=O)Nc1ccccc1C	0.3%	-4.1	12.7	-3.7	-0.3	-8.9
O=C(c1cc(-c2ccccc2O)on1)N1CCc2ccccc2C1	5.4%	-3.0	-0.6	5.7	1.4	-0.5
Cc1cc(NC(=O)c2ccccc2)ccc1NC(=O)Cc1ccccc1	1.2%	3.7	14.8	-4.4	0.3	-3.7
COc1ccc(NC(=O)C2CCC(CNc3c(N4CCOCC4)c(=O)c3=O)CC2)cc1Cl (stereo not given)	0.8%	0.0	-27.0	-25.8	0.9	-8.3
COC(=O)C1=C(C)NC(=O)/C1=C\c1cc(C)n(-c2ccc(F)cc2)c1C	2.8%	-1.4	-0.3	-11.5	2.7	-5.1
CCOc1ccc(N2CC(C(=O)Nc3cccc(S(=O)(=O)N4CCCC4)c3)CC2=O)cc1 (stereo not given)	3.8%	2.5	-9.6	-17.9	1.8	11.3
Cc1ccc(S(=O)(=O)N(C)C[C@@H]2Oc3ncc(C#CCC(C)C)cc3C(=O)N([C@H](C)CO)C[C@H]2C)cc1	1.2%	-15.0	-3.1	-16.2	0.8	-2.9
CC(CNC(=O)Cn1cnc2c(NCc3ccccc3)ncnc21)c1ccccc1 (stereo not given)	2.9%	-2.9	-2.5	2.5	-0.9	-2.7
CC(C)CN(C(=O)COC(=O)C12CC3CC(CC(O)(C3)C1)C2)C1CCS(=O)(=O)C1 (stereo not given)	?	0.5	8.9	-2.5	3.0	-1.2
COc1ccc(Br)cc1S(=O)(=O)n1ccnc1	-1.1%	-0.7	10.3	.	0.9	-8.2
Cc1ccc(C(=O)NCc2ccc3c(c2)OCO3)cc1S(=O)(=O)N1CCOCC1	.	-2.2	0.5	1.6	0.2	2.9
Nc1ccc2nc(CCc3ccccc3)[nH]c2c1	-0.2%	-1.0	-12.0	9.9	-0.6	-2.3
COc1ccc(-c2noc(Cn3cc(S(=O)(=O)N4CCCC4)ccc3=O)n2)cc1	2.8%	2.0	-1.6	-1.5	1.0	9.1
O=C(N/N=C\c1cccnc1)c1ccc(Cl)s1	1.4%	-3.8	-1.2	-1.2	-0.2	-17.9
CSCCC(NC(=O)c1ccc([N+](=O)[O-])cc1Cl)C(=O)OCC(=O)NC(=O)CN1CCCC1=O (stereo not given)	-0.1%	0.5	11.2	-9.1	1.1	2.8
Cn1cccc1C1Nc2ccccc2NC2=C1C(=O)CC(C)(C)C2 (stereo not given)	0.4%	-9.1	-24.4	-15.1	0.5	-58.2
Cc1ccccc1OCCOc1cccc(/C=N/NC(=O)Cc2nnc(N)s2)c1	19.2%	-1.2	-10.8	-4.0	-0.7	-5.2
COc1ccc(NC(=O)C2Cc3c(-c4cccc(C(C)=O)c4)ccnc3O2)cn1 (stereo not given)	10.2%	-3.2	23.4	14.9	0.3	-5.3
COc1cc(/C=N/NC(N)=S)ccc1OC(=O)c1ccc(C)cc1	1.7%	3.0	-12.9	-7.2	-0.2	-10.2
CCC(C)(C)NC(=O)/C=C/c1ccccc1[N+](=O)[O-]	-0.4%	-4.4	8.5	-13.9	1.3	-7.8
COCCCNC(=S)NC1CC2CCCC(C1)N2Cc1ccco1 (stereo not given)	11.6%[38.3 µM]	-0.9	2.9	-16.3	-0.2	-24.6

The listing continues.
SMILES	PINK1 modulator	D2 agonist	Six1-Eya2 inh	CtBP-E1A inh	TRPML1 ag	D2 PAM
O=C(NC1CCCCCC1)C1CCN(S(=O)(=O)N2CCC3(CC2)OCCO3)CC1	9.1%[38.3 µM]	-0.4	4.1	3.5	0.2	13.8
CCN(CC)S(=O)(=O)c1ccc(OC)nc1	2.3%[38.3 µM]	-3.0	5.1	10.7	0.5	-6.5
Oc1ccc(Br)cc1CNc1ccccn1	3.7%	-6.2	-0.4	3.6	.	-7.5
COc1ccc(Cl)cc1C(=O)CSc1nnnn1C	0.3%	-1.8	1.3	-4.1	0.4	-0.7
CCOC(=O)C1CCN(C(=O)c2ccc(OC)cc2OC)CC1	-4.9%[38.3 µM]	-2.3	5.9	-0.3	0.5	-4.1
O=c1c2c3nc4ccccc4nc3n(Cc3ccccc3)c2ncn1Cc1ccco1	3.5%	-3.1	-11.4	-0.1	0.6	-8.5
c1ccc(CSc2nnc(NC3=NCCCCC3)s2)cc1	-0.2%	-0.5	1.6	2.1	0.0	3.4
Cc1onc(-c2c(Cl)cccc2Cl)c1C(N)=O	2.1%[38.3 µM]	0.8	4.0	9.2	-0.3	-6.3
O=C(CO/N=C/c1c(Cl)cccc1Cl)NNC(=O)c1ccc(Cl)cc1	-1.1%	3.9	-2.9	-5.0	2.7	-6.3
CC(=O)Nc1ccc(CN2CCc3c([nH]c4ccccc34)C2c2ccccn2)cc1 (stereo not given)	3.5%	1.0	-10.5	-11.4	0.9	-9.0
CN1CCN(S(=O)(=O)c2ccc(NC(=O)c3csc4ccccc34)cc2)CC1	-2.0%[38.3 µM]	-0.2	-16.3	-19.9	2.4	-5.5
COc1ccccc1CNC(=O)CCc1ccccc1	-1.1%	5.6	-2.5	.	-0.9	-2.6
CC1CCN(CCCn2c(=S)[nH]c3c(sc4ccc([N+](=O)[O-])cc43)c2=O)CC1	1.5%	-2.4	7.0	-0.8	-0.5	-31.8
COc1ccccc1N1C(C)=CC(=C(C#N)c2nc3ccccc3s2)C=C1C	-1.3%	1.5	14.1	3.3	12.2	1.0
Cc1[nH]c2ccccc2c1C(=O)COC(=O)c1ccc[n+]([O-])c1	0.5%	3.3	3.3	.	0.7	-8.2
Cc1ccc(NC(=O)OCCN2CCN(Cc3ccccc3)CCC2=O)cc1C	2.4%	1.1	4.7	7.3	-0.4	-6.3
CN(C)CCCNC(=O)c1cc(C(=O)Cc2ccc(Cl)cc2)c[nH]1	0.5%	-2.4	-0.3	.	3.5	-11.7
COc1ccc(C(=O)CSc2nnc(COc3ccccc3)n2Cc2ccco2)cc1	0.2%	-0.7	-13.6	-9.9	6.4	3.3
O=C(CCCCCN1C(=O)c2ccccc2C1=O)NCc1ccccn1	2.5%	1.4	-10.5	0.5	0.5	0.7
COC(=O)CSc1nnc(CNC(=O)c2ccccc2OC)n1C	-5.3%[38.3 µM]	-0.8	5.4	10.3	-0.8	-2.3
COCCCn1c(SCC(=O)NNC(=O)c2cccc(O)c2)nnc1-c1ccncc1	0.2%	1.0	0.0	3.2	1.1	2.7
COc1ccccc1C(=O)NCCC(=O)N(C)Cc1ccc(C)o1	-0.6%	1.6	2.7	2.0	0.7	-15.1
O=C(OCC(=O)N1CCN(c2ccccc2)CC1)c1cccc([N+](=O)[O-])c1	0.9%	-4.1	-5.5	0.5	-0.5	-8.6
COc1ccc(C(=O)NNS(=O)(=O)c2ccccc2)cc1	1.2%	-5.2	23.3	0.0	-0.1	-11.6
CC(C)=CC(=O)OCC(=O)Nc1ccc(Cl)cc1	0.5%	0.7	3.8	0.5	0.5	3.4

Remaining list, next part
SMILES	PINK1 modulator	D2 agonist	Six1-Eya2 inh	CtBP-E1A inh	TRPML1 ag	D2 PAM
CC(C)CC(=O)Nc1ccc(C(=O)Cn2nc(C(=O)O)c3ccccc3c2=O)cc1	1.3%	0.8	4.2	0.5	0.2	-3.0
CSCCCNC(=S)N(C)CC(=O)Nc1ccc(C)cc1	0.8%	-2.8	4.2	-3.5	0.0	0.5
COc1ccccc1NC(=O)CSc1nc2nccnc2c(=O)n1Cc1cccs1	1.9%	2.3	-5.8	.	1.3	-0.9
Cc1ccccc1-c1nc(CS(=O)(=O)CC(=O)NC2CC2)c(C)o1	-0.6%	-4.9	-0.9	-2.1	0.0	-2.2
COC(=O)c1ccc(OC)c(CSc2nnc(COc3ccccc3)o2)c1	5.1%[38.3 µM]	-0.9	15.3	22.3	0.5	-4.3
NS(=O)(=O)c1ccc(CNC(=O)/C=C/c2cccc(Cl)c2)cc1	-2.4%	0.0	8.0	9.3	1.3	-10.2
CC1CCCN(C(=O)CSc2nnc(-c3ccncc3)n2C)C1 (stereo not given)	0.5%	-4.7	0.1	-0.9	6.2	-2.0
COc1ccc(NC(=O)Cn2ccc(C(F)(F)F)n2)cc1S(=O)(=O)N1CCOCC1	3.3%	0.7	2.4	3.7	-0.2	1.4
CNCc1cc(Cl)cc(OC)c1OC(C)C	-1.1%	-1.6	-2.8	0.0	0.0	-9.3
CCc1nc2ccccc2c(C(=O)OCc2nc3ccccc3c(=O)[nH]2)c1C	8.7%	4.0	-7.8	-1.5	-0.9	-1.0
Oc1c(Cl)cc(Cl)cc1CNc1nccs1	2.1%	-1.1	-65.2*	-82.8*	0.1	1.2
CCOC(=O)c1cccc(NC(=O)CCS(=O)(=O)c2ccc(Br)s2)c1	1.2%&-0.7%	1.9	6.8	4.3	2.0&3.9	-3.8
COc1ccc(OC2CCN(S(=O)(=O)c3cccc(F)c3)CC2)cc1	-0.3%&-1.1%	0.7	4.0	-0.1	2.1	-6.4
O=C(CNc1cc(S(=O)(=O)N2CCOCC2)ccc1NCC1CCCO1)Nc1ccc(C(F)(F)F)cc1 (stereo not given)	1.1%	-1.1	-3.9	-21.9	2.5	-21.7
O=C(Cc1cc(=O)oc2cc(O)ccc12)NCC1CCC(C(=O)O)CC1 (stereo not given)	6.3%	0.3	5.6	2.3	-0.3	5.3
CC(C)C[C@@H](CSc1ccccc1)N1CCN(CCc2ccccc2)CCC1=O	10.8%	-3.2	0.0	-4.9	0.5&-0.4	-34.2
COc1cc(CC(=O)NCc2cccs2)cc(OC)c1OC	-3.0%	-0.6	23.2	0.0	-0.1	-4.9
